# Assay outcomes deposited in PubChem BioAssay by several laboratories.
# Calb FLC: affects C. albicans growth with fluconazole | C. albicans CaCi-2 (fluconazole-resistant clinical isolate) + fluconazole, Alamar Blue growth, 48 h | growth inhibition, % (test concentration not listed) | hit rate 0.57% among 300,000;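 active = most replicates above 75%; inconclusive = exactly half above 75%; inactive = most below 75%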;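 also: all wells also contain fluconazole at 8 µg/ml as a sub-toxic cotreatment; 0% = median of DMSO wells and 100% = median of geldanamycin control wells; wells of about 8 µL received 7.5 nL stock; the first replicate is given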
# MLL AF4-AF9 inh: inhibitors of human MLL-AF4/AF9 interaction | P42568 | AlphaScreen, biotin-AF4 peptide binding to FLAG-AF9 | inhibition, % at 10 µM | hit rate 0.47% among 350,000;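 active = every replicate reaching a set inhibition limit, whatever the replicate mean, cut at about 25% in these data; inconclusive = mean inhibition reaches that limit but some replicates miss it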;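 also: 0% = plate neutral control median and 100% = total signal loss; the record names both 10 and 1 µM as test concentration; the first replicate is given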
# LANA-H2B inh: blocks KSHV LANA binding to histone H2A/H2B | Q9QR71 | cell-free LANA-H2A/H2B peptide, fluorescence polarization | inhibition, % (concentration not given with the values) | hit rate 0.6% among 320,000 | AID 2629; in the data active = inhibition mostly above about 10%, no sharp cut-off; inactive = mostly below about 6.7%;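 also: stock transfer was 7.5 nL into about 10 µL; 0% = median of vehicle wells and 100% = median of positive control wells; one replicate is shown; the record names a cut of 25% in any replicate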
# Target sequence (Q9QR71 whole entry, looked up): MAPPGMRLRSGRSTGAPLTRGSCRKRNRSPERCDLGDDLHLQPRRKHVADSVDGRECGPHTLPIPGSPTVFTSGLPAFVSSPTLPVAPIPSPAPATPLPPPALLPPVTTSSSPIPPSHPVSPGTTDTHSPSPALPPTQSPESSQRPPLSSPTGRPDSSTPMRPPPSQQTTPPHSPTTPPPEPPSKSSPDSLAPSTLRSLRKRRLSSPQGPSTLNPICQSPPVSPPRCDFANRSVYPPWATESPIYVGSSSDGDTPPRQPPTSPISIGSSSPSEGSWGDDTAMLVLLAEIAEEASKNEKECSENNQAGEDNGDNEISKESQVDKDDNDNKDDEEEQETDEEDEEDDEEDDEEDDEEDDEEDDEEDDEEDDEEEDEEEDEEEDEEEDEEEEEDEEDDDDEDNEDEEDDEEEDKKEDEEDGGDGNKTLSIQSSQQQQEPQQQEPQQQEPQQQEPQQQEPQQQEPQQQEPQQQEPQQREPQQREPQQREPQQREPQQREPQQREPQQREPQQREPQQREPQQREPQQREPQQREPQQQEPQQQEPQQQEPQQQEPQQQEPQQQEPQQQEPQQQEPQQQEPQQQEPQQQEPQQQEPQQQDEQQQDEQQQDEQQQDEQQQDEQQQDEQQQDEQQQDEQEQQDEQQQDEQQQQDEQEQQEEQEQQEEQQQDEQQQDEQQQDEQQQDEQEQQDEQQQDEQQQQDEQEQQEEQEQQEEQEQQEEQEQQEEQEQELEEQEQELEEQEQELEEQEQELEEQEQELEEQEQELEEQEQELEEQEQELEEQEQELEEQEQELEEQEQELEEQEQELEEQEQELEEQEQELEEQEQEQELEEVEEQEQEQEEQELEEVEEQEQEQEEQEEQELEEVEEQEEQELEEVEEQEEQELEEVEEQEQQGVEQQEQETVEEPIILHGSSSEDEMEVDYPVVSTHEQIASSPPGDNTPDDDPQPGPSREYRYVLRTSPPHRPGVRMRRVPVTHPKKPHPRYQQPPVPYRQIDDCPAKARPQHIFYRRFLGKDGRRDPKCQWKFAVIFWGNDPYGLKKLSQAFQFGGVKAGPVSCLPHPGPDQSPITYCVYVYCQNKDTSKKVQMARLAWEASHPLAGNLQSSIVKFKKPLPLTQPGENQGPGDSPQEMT
# A1 inh: inhibitors of the anti-apoptotic protein A1, read as caspase activation. MEF A1-2A-BIM cells, Caspase-Glo 3/7 luminescence, 3 h; percent of clofoctol response, vehicle zero. caspase activation, % (test concentration not listed). hit rate 0.066% among 330,000. AID 2462;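 active = over half of replicate activation scores above 10%, or exactly half above 10 with the replicate mean above 10; inconclusive = replicate mean below 10 yet half the replicates above 10; inactive = over half of replicates below 10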;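 also: wells of about 30 µL received 50 nL stock; many hits fall short of the cut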
# T cruzi inh: blocks replication of Trypanosoma cruzi. T. cruzi beta-gal in NIH3T3, luminescence, 90 h. hit rate 1.4% among 300,000. inhibition, % (no concentration beside the values);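 active = mean inhibition across valid replicates above about 55%, limit read from the data; inconclusive = mean below that limit but half or more replicates reach it; inactive = mean below it, under half of replicates reach it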;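 also: signal also drops with host cell toxicity which is not excluded here; 0% = plate median of DMSO wells and 100% = zero luminescence signal; higher percent means less beta-gal luminescence so fewer parasites; stock transfer was 50 nL into about 50 µL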
# Vif A3G: HIV-1 Vif–A3G interaction blockers – biochemical, TR-FRET, GST-Vif 1-94, biotin-A3G peptide, dose response retest, primary screen (AID 1117319); TR-FRET GST-Vif / biotin-A3G peptide binding; higher % means a stronger effect; test concentration not given here; strong numbers were not always called active; inhibition, %; hits with a dose series show IC50 in µM; hit rate 0.57% among 260,000;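 active = above the screen mean plus three standard deviations and confirmed in dose response; inconclusive = results disagree or hit not tested in dose response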;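 also: Vif residues 1-94 fused to GST binding biotinylated APOBEC3G peptide 110-148; 0% = full assay without inhibitor and 100% = GST in place of GST-Vif; retest series ran down from 100 µM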
# RanGTP-Imp inh: disruptors of Ran-importin-beta complex formation – biochemical, FRET, CFP-Ran, YFP-importin-beta, homogeneous, primary screen. cell-free CFP-Ran/YFP-importin-beta FRET ratio. inhibition, % (concentration not given with the values). hit rate 1.1% among 300,000;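 active = most replicates above 15%; inconclusive = exactly half above 15%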;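 also: 0% = DMSO wells and 100% = Ran loaded with GDP instead of GTP; wells of about 40 µL received 100 nL stock; the first replicate is given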
# Beta cell apopt: beta cell apoptosis inhibition; INS-1E cytokine-induced death, ATP luminescence, 48 h; percent of positive-control rescue, neutral wells zero; protection from apoptosis, % (concentration not given with the values); hit rate 0.8% among 300,000;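 active = all replicates at 75% or more, or half of them and the mean; inconclusive = half reach 75% but not the mean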;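 also: 0% = cytokine-treated negative control wells and 100% = positive control rescue; higher means more ATP so stronger rescue from cytokine killing; wells of about 40 µL received 100 nL stock; the first replicate is given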
# * hit, by the source's call; ? = inconclusive; / = not tested or not shown.
SMILES	Beta cell apopt	A1 inh	Vif A3G	LANA-H2B inh	RanGTP-Imp inh	Calb FLC	T cruzi inh	MLL AF4-AF9 inh
OC(COCc1ccc(Cl)cc1)CN1CCc2ccccc2C1 (stereo not drawn)	-1	0.1	-1%	4.7	4.1	9	0	/
O=c1oc(-c2cccc(C(F)(F)F)c2)nn1-c1ccc(C(F)(F)F)cn1	2	-0.2	-3%	7.8	-0.3	-11	-4	-1.4
COc1ccc(C(=O)Nc2cccc(/C(C)=N\NC(=O)c3ccoc3C)c2)cc1OC	/	/	/	/	-3.6	9	-2	0.6
S=C(Nc1ccccc1)Nc1cccc(Br)c1	-3	0.3	-8%	7.9	1.8	1	-55	0.2
COCCCC1CCN(Cc2nc(Cc3ccccc3Cl)no2)CC1	-6	0.7	/	-2.9	1.4	27	37	-0.5
O=S(=O)(c1cc(Cl)ccc1Br)N1CCOCC1	-3	0.4	-1%	-1.5	4.2	6	-6	/
Cc1ccc(-c2nnc(Sc3nc4ccccc4o3)c3ccccc23)cc1	2	0.4	-4%	4.3	-4.7	4	13	/
N#Cc1ccc(N2Cc3ccccc3C2=NC(=O)c2cccs2)cc1	0	-2.9	8%	10	-2.0	-13	-10	-2.9
COc1ccc(-c2nnn(CC(=O)c3c[nH]c4ccccc34)n2)cc1OC	6	-0.2	9%	-0.9	5.9	0	5	/
CN(C)N1C(=O)CC(C)(c2ccc([N+](=O)[O-])cc2)C1=O (stereo not drawn)	-7	0.0	/	4.1	-0.6	-2	-8	-8.4
CCC/C=N/Nc1nc2ccccc2s1	3	-3.2	0%	-0.7	0.4	-25	10	-1.3
COc1cccc(/C=N/NC(=O)C(=O)N2CCCC2)c1OC	-4	0.5	?	-0.7	-1.5	-4	-7	/
CCOc1cc2[nH]c(=S)n(C(C)C)c(=O)c2cc1OCC	9	-0.7	-5%	5.0	1.5	18	6	/
COCCN1C(=O)c2ccccc2C(C(=O)NCC2CCCO2)C1c1c[nH]c2ccccc12 (stereo not drawn)	4	-0.1	14%	3.6	3.0	-3	2	/
Cc1ccc2nsnc2c1S(=O)(=O)Nc1ccccc1C(=O)O	3	1.1	/	0.4	-0.2	-11	-1	-1.4
Cc1cc(C(=O)Nc2cc(C)n(Cc3ccc(Cl)cc3)n2)no1	3	0.4	17%	-1.1	?	27	-33	/
Cn1cnnc1SCC(=O)c1ccco1	-6	0.2	22%	-4.1	1.2	10	-29	4.3
CCOC(=O)c1c(C)[nH]c(C(=O)NCc2ccco2)c1C	0	0.2	?	-1.3	0.1	-21	3	/
O=C(CSc1nnc(C2CC2)n1CC1CCCO1)Nc1cccc(Cl)c1 (stereo not drawn)	-7	0.0	1%	-1.0	11	0	0	6.0
COc1ccc(CC(=O)NCC2CCCN(Cc3ccc(OC(F)(F)F)cc3)C2)cc1 (stereo not drawn)	0	0.8	-2%	-2.8	-1.7	2	43	0.6
O=C(NCC1CCN(Cc2ccccc2F)CC1)Nc1ccccc1F	-1	-0.2	-2%	2.6	2.3	-15	2	4.8
CC(C)c1ccc(OCC(=O)NC2CC(C)(C)NC(C)(C)C2)c(Br)c1	1	0.2	-7%	1.3	0.1	-3	24	0.9
Cc1ccc(NC(=O)c2cccc(S(=O)(=O)N3CCCC3)c2)nc1	-3	0.4	1%	-4.1	-1.6	1	1	?
COc1cc(C(=O)Oc2cccc(C=O)c2)cc(OC)c1OC	-1	-0.2	9%	0.9	-3.0	-9	2	/
COC(=O)c1[nH]nc2c1C(=O)N(C1CCCCC1)C2=O	-1	-0.3	1%	-1.4	2.3	2	-24	/
COc1ccc(/C=N/N=C2/NC(=O)C(c3ccccc3)S2)c(OC)c1 (stereo not drawn)	-14	-0.7	>100µM*	2.7	-0.1	-13	-11	/
CC1CC(C)CN(CCCNC(=O)COc2cc(=O)n(C)c3ccccc23)C1 (stereo not drawn)	/	-0.2	20%	1.4	-2.3	-3	8	/
CC/C(=N\O)c1ccc(O)c(OC)c1	-2	1.3	3%	5.2	1.4	7	-7	/
COc1cc2c(cc1OC)CN(C(=O)c1cccs1)CC2	4	-0.2	9%	-2.7	0.6	3	3	/
Cc1oc(-c2cccc(Cl)c2)nc1CS(=O)(=O)CC(=O)NCCN1CCCC1	-5	0.3	/	2.5	6.8	-7	-37	2.5
CCOc1ccccc1CN1CCN(C2CCN(c3ccccc3F)CC2)CC1CCO (stereo not drawn)	0	0.1	14%	0.0	2.8	-28	49	3.8
COc1cc(OC)cc(C(=O)N2CCN(Cc3ccccc3[N+](=O)[O-])CC2)c1	-31	0.5	/	0.7	2.1	-1	-12	-5.2
C=CCn1c(SCC(=O)NC)nc2sc3c(c2c1=O)CCC3	3	0.8	?	-0.6	5.9	4	8	/
Cc1nnc(SCC(=O)NC2CCCC2)n1C(C)C	0	-0.7	-1%	-0.7	?	7	-2	-1.7
CC(=O)Nc1ccc(S(=O)(=O)N2CCN(CCCOc3cc(C)ccc3C)CC2)cc1	20	1.5	5%	-8.2	0.3	2	-17	/
CC(C)(C)c1ccc(C(=O)Nc2cccc3ncccc23)cc1	9	-1.0	/	3.7	-14	-5	0	1.7
c1ccc2cc(OCCOCCOc3ccc4ccccc4c3)ccc2c1	-7	0.9	-10%	-2.5	?	-6	4	5.5
Cc1ccc([N+](=O)[O-])cc1N=C(c1cccc([N+](=O)[O-])c1)N1CCOCC1	-7	0.3	-2%	2.9	5.5	8	-1	/
O=C(CCS(=O)(=O)c1ccc(Cl)cc1)NC1CCCC1	-3	-0.5	/	-1.5	/	/	/	3.0
COc1ccc(-c2cc(-c3ccc(C)cc3)n[nH]2)c(O)c1	-2	0.1	0%	-1.4	0.9	36	4	-4.9
CC1CCCC(NC(=O)Cn2cc3c(n2)CCCCC3)C1C (stereo not drawn)	-3	1.0	64%	1.8	-0.3	-17	0	-0.7
Cc1cc(C)c(S(=O)(=O)N2CCCOC2CNC(=O)C(=O)NCCc2c[nH]c3ccccc23)c(C)c1 (stereo not drawn)	40	-0.5	16%	-5.7	0.7	14	19	/
CN1CCN(NC(=O)/C=C/c2ccc(Br)cc2)CC1	7	-0.9	-5%	-3.4	1.6	-2	24	-0.6
CSCc1ccc(C(=O)N2CCC(N3CCC(C(=O)NC(C)C)CC3)CC2)o1	-3	0.4	/	-1.8	3.0	-4	-8	-0.7
COc1ccc(-c2nc(N)n(C(=O)c3ccco3)n2)cc1	7	-0.2	-9%	4.3	-1.3	-36	-7	0.3
CS(=O)(=O)N(CC(=O)NCc1ccccc1)C1CCCCC1	-4	-0.4	8%	1.8	0.9	-3	10	/
COc1ccccc1CNC(=O)C1CCN(S(=O)(=O)c2cccc3cccnc23)CC1	1	0.5	2%	-2.1	-1.4	4	-5	3.1
O=C1CCC(=O)N1Cc1c(Cl)cccc1Cl	-4	0.6	/	2.5	0.8	4	-5	0.9
c1ccc(CNCc2ccco2)cc1	/	0.4	/	-1.8	-5.3	-2	2	0.1
CN(C)C(=O)C1C2NC(=S)N(c3cccc(Cl)c3)C1(C)Oc1ccc(Cl)cc12 (stereo not drawn)	-2	-0.4	5%	8.0	?	16	-9	5.8
COC(=O)c1ccc(Nc2c([N+](=O)[O-])ccc3nonc23)cc1	3	0.5	-6%	-0.1	-6.2	4	6	0.4
C/C=C/c1ccc(OCC(=O)N(CCOC)c2c(N)n(CCCC)c(=O)[nH]c2=O)c(OC)c1	3	-0.2	3%	0.5	5.4	2	0	-0.8
Cc1cccc(NC(=O)c2ccc3c(c2)CCN3S(C)(=O)=O)c1	-7	0.0	/	-0.5	-1.8	-1	8	1.4
CCNC(=O)/C(C#N)=C/c1c(N2CCN(c3ccccc3)CC2)nc2c(C)cccn2c1=O	4	0.2	0%	1.9	20*	18	22	1.8
O=C(CS(=O)c1ccc(C(F)(F)F)cc1[N+](=O)[O-])Oc1ccc(Cl)cc1 (stereo not drawn)	-25	0.4	15%	4.7	-2.5	-1	-17	/
Cc1ccc2nc(-c3ccccc3)cc(C(=O)N3CCN(c4ccccc4O)CC3)c2c1	6	-0.1	-8%	1.6	-1.0	/	9	-3.7

# Going on with the list:
SMILES	Beta cell apopt	A1 inh	Vif A3G	LANA-H2B inh	RanGTP-Imp inh	Calb FLC	T cruzi inh	MLL AF4-AF9 inh
COc1cc(/C=C/C(=O)O)ccc1OCc1ccccc1C#N	-1	-0.7	-5%	-3.1	3.6	-11	-10	/
Cc1ccc(CN2C(=O)c3ccccc3NC2c2ccccn2)cc1 (stereo not drawn)	2	-0.4	/	-5.1	0.8	-61	-5	-0.8
O=C(CC(=O)Nc1ccc(F)cc1F)Nc1ccc(F)cc1F	0	-0.7	0%	0.3	-3.4	-4	-21	-2.4
COC(=O)C1=C[C@@H](C(=O)OC)C2C3=C(C(=O)C24CCCCC4)[C@H](C)n2c(=O)n(-c4ccccc4)c(=O)n2[C@@H]3C1 (stereo partly drawn)	3	-0.3	/	4.7	1.5	9	3	5.4
CCc1nc2c(cnn2-c2ccc(F)cc2)c(=O)n1-c1ccc(N2CCC(C)CC2)cc1	28	-0.6	?	6.5	2.3	-10	49	0.4
COc1cccc(OCc2cc(C(=O)N3CCN(C)C(c4ccccc4)C3)no2)c1 (stereo not drawn)	2	0.2	2%	-1.3	-3.0	13	17	/
COc1ccccc1CN1CC(C(=O)NCCc2ccc(Cl)cc2)CC1=O (stereo not drawn)	-4	2.3	/	-1.6	2.3	-1	31	0.8
COc1ccc(OC)c(S(=O)(=O)N2CCC(NC(=O)c3ccccc3)CC2)c1	-2	1.0	-9%	1.1	-0.1	-8	0	-1.7
COc1ccc(C(=O)N2CCN(c3cnn(-c4ccccc4)c(=O)c3Cl)CC2)cc1	4	0.9	-13%	-0.7	7.6	2	0	-6.3
CCOC(=O)C1CCCN(C(=O)COc2ccc(S(=O)(=O)N(CC)c3ccccc3)cc2)C1 (stereo not drawn)	2	1.2	-7%	-2.8	2.1	-8	17	-1.7
Cc1ccnc(NS(=O)(=O)c2ccc(Oc3ccccc3)cc2)c1	0	-0.5	11%	-0.3	-1.6	-27	-3	/
N#CCCN(Cc1ccccc1)C(=O)c1cccs1	-6	0.2	?	2.6	-1.7	-2	-10	-0.7
O=C(Nc1ccccc1)C1=C(c2ccccc2)S(=O)(=O)CCS1(=O)=O	/	/	4%	/	-1.3	32	69*	-2.6
O=C(/C=C\c1ccccc1)Oc1cccc2cccnc12	-4	-0.3	30%	-1.1	?	-31	15	5.4
CC(Cc1cccnc1)NC(=O)c1cc(COc2ccc(F)cc2F)on1 (stereo not drawn)	1	-1.1	14%	-1.6	-0.7	11	-6	0.0
COc1ccc(NC(=O)COc2ccccc2C#N)c(S(=O)(=O)N2CCCCC2)c1	4	-0.5	6%	-0.8	-4.7	5	7	/
N#CNC(=Nc1cccc(F)c1)SCc1cccc(F)c1	20	-0.5	-10%	-1.7	5.5	53	-19	-2.4

# Outcome played no part in choosing rows (roughly 4.3% active in at least one column).
